# H5N1 CPE: MDCK cell protection from H5N1 avian flu; cytopathic effect, luminescence, 72 h; hits give high values; no value below 0 was filed and about half of the inactive calls have no number; reference of the scale not given here; inhibition, % at 50 µM; actives 0.07% (n = 96,000); in the data active means inhibition above about 25%
# * marks the source's active call; other numbers are inactive results; i = inactive. An excerpt; count on the stated rates, not on these rows.
SMILES,H5N1 CPE
Cc1cc(C(=O)CN2C(=O)c3ccccc3S2(=O)=O)c(C)n1-c1ccccc1,i
CCOC(=O)c1ccc(NS(=O)(=O)CC)cc1,0.7
COc1ccc(NC(=O)N(Cc2ccc3c(c2)OCO3)C2CC(=O)N(c3ccc(OC)cc3)C2=O)cc1 (configuration not stated),i
O=C(CS(=O)c1cccc(Cl)c1)Nc1ccccc1Cl (configuration not stated),i
O=C(CCn1nnc(-c2cccs2)n1)NC1CCCCC1,0.5
CCC(CC)NC(=O)c1cc2c(C)nn(Cc3ccccc3Cl)c2s1,i
O=c1[nH]cnc2c1cnn2Cc1ccccc1,0.9
CC(=O)NC1C(=O)N(CCc2ccccc2)c2ccc(Br)cc21 (configuration not stated),i
COc1ccc(Cn2c(C)c(C)c(C#N)c2NC(=O)Nc2ccc(F)cc2)cc1,0.0
CCC(=O)CC(c1ccc([N+](=O)[O-])cc1)c1c(O)c2ccccc2oc1=O (configuration not stated),i
COc1ccc(OC)c(-c2nc3c(C)n[nH]c(=O)c3[nH]2)c1,2.2
CCOc1cccc2cc(C(=O)Nc3nccs3)c(=O)oc12,i
CCOc1cccc(-c2nnc3sc(C4CCCCC4)nn23)c1,2.1
COC(=O)c1c(NC(=O)CC2SCC(C(=O)OC)NC2=O)sc2c1CCCC2 (configuration not stated),i
COc1ccc(NC(=O)CCNS(=O)(=O)c2ccc(Br)s2)cc1,0.4
Cn1c(N)c(C(=O)COC(=O)C2CCCCC2)c(=O)n(C)c1=O,0.7
CCc1ccccc1NS(=O)(=O)c1cc(C)ccc1OC,0.6
COCCSc1nnc(NC(=O)CSCc2ccccc2)s1,i
O=C(c1ccco1)N1CCN(C(=O)c2cc(-c3ccccn3)nc3ccc(Cl)cc23)CC1,i
Cc1ccc(-n2nnc3c(=O)oc4ccccc4c32)cc1,0.0
COc1cc(C(=O)Nc2nc3ccc(S(=O)(=O)N4CCOCC4)cc3s2)cc(OC)c1OC,i
CC(C)CCn1c(SCC(=O)OCn2nnc3ccccc3c2=O)nc2ccccc2c1=O,0.8
COc1cccc(-c2nnc(NC(=O)Cc3cccs3)s2)c1,0.5
CC1(C)CC(=O)C2=C(C1)Oc1nc3ccccc3cc1C2C(C#N)C#N (configuration not stated),i
Cc1cc(C)n2nc(CCc3ccccc3)nc2n1,1.1

# Nothing new here: entries from further up.
SMILES,H5N1 CPE
Cc1cc(C(=O)CN2C(=O)c3ccccc3S2(=O)=O)c(C)n1-c1ccccc1,i
CCOC(=O)c1ccc(NS(=O)(=O)CC)cc1,0.7
COc1ccc(NC(=O)N(Cc2ccc3c(c2)OCO3)C2CC(=O)N(c3ccc(OC)cc3)C2=O)cc1 (configuration not stated),i
O=C(CS(=O)c1cccc(Cl)c1)Nc1ccccc1Cl (configuration not stated),i
O=C(CCn1nnc(-c2cccs2)n1)NC1CCCCC1,0.5
CCC(CC)NC(=O)c1cc2c(C)nn(Cc3ccccc3Cl)c2s1,i
O=c1[nH]cnc2c1cnn2Cc1ccccc1,0.9
CC(=O)NC1C(=O)N(CCc2ccccc2)c2ccc(Br)cc21 (configuration not stated),i
COc1ccc(Cn2c(C)c(C)c(C#N)c2NC(=O)Nc2ccc(F)cc2)cc1,0.0
CCC(=O)CC(c1ccc([N+](=O)[O-])cc1)c1c(O)c2ccccc2oc1=O (configuration not stated),i
COc1ccc(OC)c(-c2nc3c(C)n[nH]c(=O)c3[nH]2)c1,2.2
CCOc1cccc2cc(C(=O)Nc3nccs3)c(=O)oc12,i
CCOc1cccc(-c2nnc3sc(C4CCCCC4)nn23)c1,2.1
COC(=O)c1c(NC(=O)CC2SCC(C(=O)OC)NC2=O)sc2c1CCCC2 (configuration not stated),i
COc1ccc(NC(=O)CCNS(=O)(=O)c2ccc(Br)s2)cc1,0.4
Cn1c(N)c(C(=O)COC(=O)C2CCCCC2)c(=O)n(C)c1=O,0.7
CCc1ccccc1NS(=O)(=O)c1cc(C)ccc1OC,0.6
COCCSc1nnc(NC(=O)CSCc2ccccc2)s1,i
O=C(c1ccco1)N1CCN(C(=O)c2cc(-c3ccccn3)nc3ccc(Cl)cc23)CC1,i
Cc1ccc(-n2nnc3c(=O)oc4ccccc4c32)cc1,0.0

# Next records follow:
SMILES,H5N1 CPE
O=C(COC(=O)CC12CC3CC(CC(C3)C1)C2)Nc1ncc(Cl)cc1Cl,1.3
CCOc1nc(-c2ccccc2Cl)ccc1C#N,i
Cc1ccccc1CN1CCN(CC2CC3C=CC2C3)CC1 (configuration not stated),i
COc1ccc(N2CCN(CCCNC(=O)CC3Oc4ccc(C)cc4NC3=O)CC2)cc1 (configuration not stated),i
O=C(CSc1nc2c(c(=O)n1-c1ccc(Br)cc1)SCC2)Nc1nccs1,0.6
CCOC(=O)N1CCC(NC(=O)CCN2C(=O)C3C4C=CC(C4)C3C2=O)CC1 (configuration not stated),i
CCOC(=O)c1ccc(Nc2ncnc3nc[nH]c23)cc1,2.3
Cc1ccc(C)n1-c1ccc(C(=O)N2CCOCC2)cc1,15
CN(C)c1ccc(CNn2cnnc2SCc2ccccc2F)cc1,2.3
Cc1c(C(=O)Nc2ccc(OC(F)(F)F)cc2)sc2nc3n(c(=O)c12)CCC3,1.9
c1ccc(CC2CCN(C3=Nc4cccc5cccc3c45)CC2)cc1,1.3
Cc1ccc(Cl)cc1N1CCN(CCN)CC1,3.2
Cc1ccc(S(=O)(=O)N2CCN(C(=O)c3cccc(F)c3)CC2)cc1,2.7
CCOC(=O)N1CCN(C2CC(=O)N(c3ccc(C)cc3)C2=O)CC1 (configuration not stated),1.5
Nc1nc(SCC(=O)NCc2ccccc2)n[nH]1,i
CCC(=O)Nc1cc(C(=O)OCC(=O)c2ccc(Cl)cc2Cl)ccc1C,0.7
COc1ccc(/C=N/Nc2nc3ccccc3o2)cc1OC,0.6
O=C1C2C3C=CC(C3)C2C(=O)N1c1cccc2cccnc12 (configuration not stated),i
Cn1nnnc1SCC(=O)N1c2ccccc2Sc2ccc(Cl)cc21,1.5
O=C(N1CCOCC1)N1CCN(c2ccc(F)cc2)CC1,i
Cn1nnnc1SCC(=O)Nc1ccccc1Cl,i
CCN(CC)C(=O)c1cc2c(=O)n3ccccc3nc2s1,1.4
CC1(C(=O)NC2CCCCCCC2)CC1(Cl)Cl (configuration not stated),1.2
CC1(C(=O)O)CCC(C(=O)Nc2ccccc2)C1(C)C (configuration not stated),i
Cn1cc(/C=N/n2cnc3scc(-c4ccc(Cl)cc4)c3c2=O)c2ccccc21,i

# Next compounds:
SMILES,H5N1 CPE
Cc1nn(C(C)C(=O)Nc2sc3c(c2C#N)CCCC3)c(C)c1[N+](=O)[O-] (configuration not stated),i
C/C(=C1/SC(N2CCOCC2)=NC1=O)c1ccc(Cl)cc1,0.6
Cc1noc(NS(=O)(=O)c2ccc(N/C=C/C(=O)c3ccccc3)cc2)c1C,1.1
CC1CCc2c(sc(NC(=O)C(=O)NCc3ccco3)c2C#N)C1 (configuration not stated),i
CCOc1ccc(N(CC)S(=O)(=O)c2ccc3c(c2)n(C)c(=O)c(=O)n3C)cc1,2.6
N=c1c(C(=O)NCc2ccc(F)cc2)cc2c(=O)n3ccccc3nc2n1Cc1cccnc1,1.8
CC(C)Cc1cc(C(=O)Nc2cccnc2)no1,i
O=C(Nc1cc(C(F)(F)F)ccc1-n1cncn1)c1ccc(-c2ccccc2)cc1,i
O=C(NCCCn1ccnc1)Nc1cccc(Cl)c1,0.3
O=C1c2ccc3c4c(ccc(c24)C(=O)N1NC(=O)C(F)(F)F)CC3,3.3
CCCC(=O)Nc1cc(C)c(NC(=O)c2ccncc2)cn1,0.6
C=C(C)c1cccc(C(C)(C)NC(=O)NC2CN3CCC2CC3)c1 (configuration not stated),i
Cc1cccc(C(=O)Nc2cccc(C(=O)N3CCOCC3)c2)c1,0.2
CCN(CC)CCNC(=O)CS(=O)Cc1nc(-c2ccc(C)cc2)oc1C (configuration not stated),i
CC1CCc2nc(NC(=O)CN3CCN(c4ccc(F)cc4)CC3)sc2C1 (configuration not stated),0.8
O=C1CN(C(=O)c2ccc(Br)o2)C(c2ccc(F)cc2)c2cc(Cl)ccc2N1 (configuration not stated),i
CN(Cc1ccccc1)Cc1ccccc1F,0.6
CC(=O)C1=C(O)CCC1=NCCc1ccccc1,0.3
O=C(Nc1ccc(NC(=O)C2CCCCC2)nc1)c1ccco1,i
C=CCOC(=O)C1=C(C)Nc2nnnn2C1c1cc(OC)ccc1OC (configuration not stated),2.9
O=C(NC12CC3CC(CC(C3)C1)C2)C1CCCN1C(=O)NC1CCCCC1 (configuration not stated),i
CCc1nc(N2CCOCC2)c(C#N)c2c1COC(C)(C)C2,3.4
Cc1ccnc(N2C(=O)c3ccccc3C2Nc2cccc(C)c2C)c1 (configuration not stated),i
Cn1c(=O)cc(N2CCc3ccccc32)[nH]c1=O,1.3
CC(=O)Nc1cccc(NC(=O)CCn2cnc3cc(C)c(C)cc32)c1,0.4

# Later entries:
SMILES,H5N1 CPE
Cc1ccc(-n2c(-c3ccncc3)nnc2-c2ccco2)cc1,i
CCc1nnc(NC(=O)c2cccs2)s1,3.7
CCOC(=O)c1c(C)[nH]c(C)c1C(=O)CSc1nnnn1-c1ccccc1,2.1
CC(C)CN(C(=O)COC(=O)Cc1n[nH]c(=O)c2ccccc12)C1CCS(=O)(=O)C1 (configuration not stated),i
CC(Oc1ccc(Cl)cc1Cl)C(=O)OCn1nnc2ccccc2c1=O (configuration not stated),1.2
COc1cc(S(=O)(=O)N2CCCC3(CCCCC3)C2)ccc1-n1cnnn1,i
C=CCOc1c2ccc(C(=O)NCc3ccc(OC)cc3)cc2nn1C,i
CN1C(=O)C(C2c3ccccc3C(=O)N2Cc2ccc([N+](=O)[O-])cc2)C(=O)N(C)C1=O (configuration not stated),0.3
CC(C(=O)Nc1ccc(Br)cc1C(=O)c1ccccc1)N1CCOCC1 (configuration not stated),0.0
CCOc1cc(N2CCOCC2)c(OCC)cc1NC(=O)CN1C(=O)NC2(CCc3ccccc32)C1=O (configuration not stated),0.6
CCOC(=O)c1ccc(S(=O)(=O)N2CCN(CC(=O)NC(=O)NC(C)(C)C)CC2)cc1,i
COc1ccc(-c2nc(-c3ccc(NC(=O)c4ccncc4)cc3)no2)cc1OC,3.5
CN(C)CCOC(=O)C1(c2ccccc2)CCCC1,0.2
Cc1cc(C)cc(N2C(=O)NC(=O)/C(=C\c3cccn3-c3ccc(Cl)cc3)C2=O)c1,0.1
O=C(CSc1nnc(-c2ccc(O)cc2)o1)Nc1ccc2c(c1)OCCO2,i
O=C(NC1CC1)c1scc2c1OCCO2,1.7
CCOC(=O)N1CCC(N2C(=O)c3ccc(C(=O)Nc4ccc(F)cc4F)cc3C2=O)CC1,i
C=CCN(CC=C)C(=O)c1ccncc1,i
CCOC(=O)c1c(-c2ccc(OC)cc2)oc2ccc(OC(=O)N(C)C)cc12,0.5
Cc1ccc(-n2c(-c3ccco3)nc3c(cnn3-c3ccccc3C)c2=O)cc1,i
CCC(Sc1nncn1C)C(=O)Nc1ccccc1OC (configuration not stated),0.5
O=C(Nc1cccc(NC(=O)c2ccco2)c1)c1ccc2c(c1)OCO2,0.9
O=C(NCc1ccco1)c1ccc(Cn2c(=O)c3sccc3n(Cc3ccc(F)cc3)c2=O)cc1,i
O=C(Nc1ccccc1Cl)c1cc(S(=O)(=O)N2CCOCC2)cs1,i
Cc1cccc(Oc2ccc(N)cc2)c1,i

# Later entries.
SMILES,H5N1 CPE
CCC1CCCCN1C(=O)Cn1c(C(=O)OC)cc2sc(Cl)cc21 (configuration not stated),i
Cc1ccc(C(=O)CSc2nnc(-c3c[nH]c4ccccc34)o2)cc1,i
CCn1c(COc2ccc(C)cc2)nnc1SCc1ccc(C#N)cc1,1.9
Cn1c(C(=O)N2CCCC(C(=O)O)C2)cc2sccc21 (configuration not stated),i
Cc1c(NC(=O)CSc2nnc(C(C)Oc3ccc(Cl)cc3)n2-c2ccccc2)c(=O)n(-c2ccccc2)n1C (configuration not stated),i
NC(=O)c1cnn2c(C(F)(F)F)cc(-c3ccc(F)cc3)nc12,0.7
COc1ccccc1Nc1ncnc2ccc(C)cc12,1.1
Cc1cc(NCc2ccco2)n2c(nc3ccccc32)c1C#N,2.7
Cc1cc(NC(=O)COc2ccc(Cl)cc2Cl)n(CCC#N)n1,i
COc1ccc(-c2cc(CNC(=O)CN(C)Cc3ccccc3)on2)cc1,0.3
COc1ccc(NC(=O)Nc2ccc(C)cc2OC(F)F)cc1OC,0.3
COc1ccccc1N1C(=O)NC(=O)C2(Cc3cc(C)ccc3N(C)C2)C1=O (configuration not stated),0.2
COc1cccc(N2CCN(Cc3ccsc3)CC2)c1,i
CCOC(=O)c1c(C)oc2ccc(OCC(=O)C(C)(C)C)cc12,0.8
CCOC(=O)CC1=C(C(=O)OCC)C(c2ccc(OC)c(OC)c2)C(C#N)=C(N)O1 (configuration not stated),i
CCOc1ccc(CCNC(=O)CN2CCN(Cc3ccc(F)cc3)C2=O)cc1OCC,0.3
N#Cc1nc(-c2cccs2)oc1NCCN1CCOCC1,1.2
CCCOC(=O)Nc1nc2ccccc2o1,0.4
C=CCNC(=O)c1cc(-c2ccc(Br)cc2)on1,i
CC1CCCC(NC(=O)COC(=O)c2c[nH]c(=O)[nH]c2=O)C1C (configuration not stated),0.3
CCOC(=O)c1c(NC(=O)c2ccc(S(=O)(=O)N3CCOCC3)cc2)sc2c1CCN(C)C2,2.0
NS(=O)(=O)c1ccc(NC(=S)NCc2ccc(Cl)cc2)cc1,0.3
CCOCC(=O)Nc1nnc(C)s1,i
O=C1CC(SCCc2nc3ccccc3[nH]2)C(=O)N1c1ccc(F)cc1 (configuration not stated),i
CCCS(=O)(=O)N1CCCC(C(=O)NCc2cccnc2)C1 (configuration not stated),i
O=C(NC1CCCC1)c1ccc(CSCc2ccccc2F)o1,0.4
COc1cc(C2C(C#N)=C(N)Oc3cc(O)ccc32)cc2c1OCO2 (configuration not stated),i
Cn1cc(CC(=O)NCCCN2CCCC2=O)c2ccccc21,0.8
COCCNC(=O)c1ccc2c(c1)nc(C)n2-c1cccc(F)c1,i
O=C(c1ccco1)N1CCN(c2ncccn2)CC1,i
